Assay outcomes deposited in PubChem by several laboratories.
HIV Env fusion – blocks HIV Env-driven cell-cell fusion; HeLa-JRFL Env/CEM21 cell fusion, luciferase; inhibition, % at 12.3 µM; 1.1% of 360,000 active; AID 651610;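 active means mean replicate inhibition score of at least 50 and every replicate individually at or above 50; inconclusive means only one of the two criteria met; inactive means mean below 50 and not all replicates reaching 50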;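 further: 0% = plate neutral controls and 100% = maraviroc near 300 nM; one replicate is shown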
MT1-MMP act inh – inhibitors of human MT1-MMP activation; GFP/RFP ratio change, % at 20 µM; HT1080 RFP-PRO-GFP cells, GFP/RFP ratio fluorescence, overnight; percent of plate control window, DMSO zero; 0.061% of 360,000 active; P50281;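 active means GFP/RFP ratio change of at least 30% with cell ATP level not reduced by more than half and red fluorescence within 50% of control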; further: strong numbers were not always called active
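Material: RFP-PRO-GFP reporter HT1080 cells. Dosing: single-point 20 µM compound, 1% DMSO. Controls: DMSO and RFP-L50D-GFP cell wells. Timing: cells overnight before dosing, compound overnight, 37 °C, 5% CO2. Measure: GFP/RFP fluorescence ratio.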
PABP FP inh – blocks human PABP binding to poly(A) RNA | AID 2014 | inhibition, % at 35 µM | 1% of 290,000 active | fluorescence polarization;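 active means 50% or more with normal probe brightness, or confirmed in later tests; inconclusive means above 50% with abnormal brightness, or retests that disagree; inactive means below 50% or failed in later tests; about a fifth of its hits are not listed in these tables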;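 further: calls also rest on retests at 20 µM and on dose response follow-up; controls were probe without protein and protein plus probe with vehicle; some compounds called inactive have numbers as strong as hits; many hits fall short of the cut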
Target sequence (P11940 whole entry, looked up): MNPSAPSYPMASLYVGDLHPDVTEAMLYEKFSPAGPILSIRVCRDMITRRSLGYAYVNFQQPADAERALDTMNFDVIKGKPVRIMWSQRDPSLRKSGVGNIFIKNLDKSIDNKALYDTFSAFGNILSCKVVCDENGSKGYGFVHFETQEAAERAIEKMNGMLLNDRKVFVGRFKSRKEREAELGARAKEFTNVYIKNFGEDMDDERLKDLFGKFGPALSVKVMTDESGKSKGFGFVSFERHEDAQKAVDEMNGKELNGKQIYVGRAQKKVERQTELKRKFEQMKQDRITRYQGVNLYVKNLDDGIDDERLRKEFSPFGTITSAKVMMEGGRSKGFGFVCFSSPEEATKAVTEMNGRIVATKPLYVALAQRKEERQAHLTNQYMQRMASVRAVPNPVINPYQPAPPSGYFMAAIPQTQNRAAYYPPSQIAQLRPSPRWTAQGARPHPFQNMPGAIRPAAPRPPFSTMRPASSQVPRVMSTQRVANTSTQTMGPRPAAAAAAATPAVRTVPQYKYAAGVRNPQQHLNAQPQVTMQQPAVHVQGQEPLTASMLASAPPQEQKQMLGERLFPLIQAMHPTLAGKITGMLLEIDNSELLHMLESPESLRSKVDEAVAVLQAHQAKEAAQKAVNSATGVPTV
Rce1 inh – blocks yeast Ras-converting enzyme; Q03530; yeast membranes, quenched prenylated peptide cleavage fluorescence; calls only; 0.27% of 290,000 active; AID 2563;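 active means fall in fluorescence gain of 50% or more versus controls, with final raw signal at or below 3038400; inconclusive means same 50% fall but final raw signal above 3038400; inactive means fall in fluorescence gain under 50%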;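 further: plate controls were neutral control wells for no effect and wells lacking membranes for full effect; tested at 10 µM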
Target sequence (Q03530 whole entry, looked up): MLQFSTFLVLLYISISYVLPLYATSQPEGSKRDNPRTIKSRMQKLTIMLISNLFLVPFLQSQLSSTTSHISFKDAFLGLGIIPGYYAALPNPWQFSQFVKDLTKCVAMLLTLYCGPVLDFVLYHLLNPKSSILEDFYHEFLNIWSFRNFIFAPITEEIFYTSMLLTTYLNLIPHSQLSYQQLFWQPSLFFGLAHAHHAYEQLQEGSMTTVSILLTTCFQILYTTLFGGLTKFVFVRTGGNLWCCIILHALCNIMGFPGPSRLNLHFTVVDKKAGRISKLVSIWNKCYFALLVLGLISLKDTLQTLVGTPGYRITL
UUG fidelity – yeast start codon fidelity modulation; S. cerevisiae UUG-firefly luciferase reporter, luminescence/redox ratio; activity score, % at 18.7 µM; 0.13% of 350,000 active;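 active means replicate mean at a twofold rise or more, about +100% in these data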;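 further: firefly luciferase made from a UUG start codon reports start codon fidelity; reporter light over untreated wells divided by growth signal over untreated wells; some hits fall short of that in this replicate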
CSC inhib – blocks cancer stem cells | cancer stem cell-like cells viability, luminescence | inhibition, % at 7.5 µM | 1.1% of 300,000 active | AID 2717;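 active means mean at 75% or more and at least half the replicates too; inconclusive means mean and replicates disagree; tested in HMLE shEcad cells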;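 further: 0% = median of negative and 100% = median of positive control wells; the first replicate is given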
eIF4H inh – inhibitors of RNA binding by human eIF4H; Q15056; eIF4H fluorescence polarization binding assay; inhibition, % at 35 µM; 0.94% of 290,000 active; AID 2012;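 active means 50% or more with normal probe brightness, or confirmed in later tests; inconclusive means above 50% with abnormal brightness, or retests that disagree; inactive means below 50% or failed in later tests; about a fifth of its hits are not listed in these tables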;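 further: calls also rest on retests at 20 µM and on dose response follow-up; 0% = protein and probe with vehicle and 100% = probe without protein; strong numbers were not always called active; many hits fall short of the cut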
MT1-MMP act inh RFP – second read-out of MT1-MMP act inh, no call of its own (marks repeat the call); RFP signal change, %; measured here: RFP expression control read;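 0 = vehicle wells; hits needed this value within 50% of zero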
Active calls of the source: *; & = joins results of further samples.

Clc1ccccc1-c1nnc(-c2cccs2)o1 was read as HIV Env fusion -81, MT1-MMP act inh -5, PABP FP inh -8, Rce1 inh inactive, UUG fidelity -21, CSC inhib 9, eIF4H inh -1 and MT1-MMP act inh RFP 2.
`O=C(Cn1cnc2c(NCc3ccccc3)ncnc21)NCC1CCCO1` (stereo unspecified) gave HIV Env fusion -17, MT1-MMP act inh 2, UUG fidelity -7 and MT1-MMP act inh RFP 4.
`CCOc1cc(C)c(S(=O)(=O)NC2CC(C)(C)NC(C)(C)C2)cc1C` gave HIV Env fusion 5, MT1-MMP act inh 1, PABP FP inh -1, Rce1 inh inactive, UUG fidelity -8, CSC inhib 15, eIF4H inh 5 and MT1-MMP act inh RFP 3.
For Cc1ccc2c(c1)N(CCC(=O)NCCCN1CCCC1)C(=O)CO2 the results were HIV Env fusion -15, MT1-MMP act inh -4, PABP FP inh 2, Rce1 inh inactive, UUG fidelity 2, CSC inhib -6, eIF4H inh 5 and MT1-MMP act inh RFP -2.
For COc1ccc(C(=O)C(CCCCC(CN(C)C)C(=O)c2ccc(OC)cc2)CN(C)C)cc1 (stereo unspecified) the results were MT1-MMP act inh -4, PABP FP inh 12, Rce1 inh inactive, UUG fidelity 0, CSC inhib 1, eIF4H inh 2 and MT1-MMP act inh RFP 6.
For COc1ccc(NC(=O)CN2C(=O)COc3ccc(C)cc32)c(OC)c1 the results were HIV Env fusion 16, MT1-MMP act inh 1, PABP FP inh 8, Rce1 inh inactive, UUG fidelity -12, CSC inhib -10, eIF4H inh -1 and MT1-MMP act inh RFP 1.
For CCCS(=O)(=O)N1CCN(C(=O)COc2ccccc2)CC1 the results were HIV Env fusion -58, MT1-MMP act inh 0, PABP FP inh -3, Rce1 inh inactive, UUG fidelity -18, CSC inhib 0, eIF4H inh -3 and MT1-MMP act inh RFP 5.
`O=C(NCc1ccco1)C(c1ccco1)N(CCc1ccccc1)C(=O)Cn1nnc2ccccc21` (stereo unspecified) gave MT1-MMP act inh 1, PABP FP inh -1, Rce1 inh inactive, UUG fidelity -21, CSC inhib 13, eIF4H inh -5 and MT1-MMP act inh RFP 5.
CNCC(=O)Nc1ccc(Cl)c(C(F)(F)F)c1 was read as HIV Env fusion 2, MT1-MMP act inh -3, PABP FP inh -8, Rce1 inh inactive, CSC inhib -5, eIF4H inh -33 and MT1-MMP act inh RFP -2.
For COc1cccc(NC(=O)CCNS(=O)(=O)c2ccc(Br)s2)c1 the results were HIV Env fusion 22, MT1-MMP act inh -1, PABP FP inh 6, Rce1 inh inactive, UUG fidelity -1, CSC inhib 31, eIF4H inh -4 and MT1-MMP act inh RFP 0.
For O=C(c1ccc(CN2CCc3ccccc3C2)cc1)N1CCc2ccccc2C1 the results were MT1-MMP act inh 4, PABP FP inh -5, Rce1 inh inactive, UUG fidelity 10, CSC inhib 6, eIF4H inh 0 and MT1-MMP act inh RFP 4.
Cc1cc(C(=O)NC(C)CCc2ccccc2)ccc1[N+](=O)[O-] (stereo unspecified) was read as HIV Env fusion 19, MT1-MMP act inh -1, PABP FP inh 1, Rce1 inh inactive, UUG fidelity 6, CSC inhib -15, eIF4H inh -3 and MT1-MMP act inh RFP -7.
For O=C(CN1C(=O)NC2(CCCC2)C1=O)N1CCN(C(=O)c2ccco2)CC1 the results were HIV Env fusion -19, MT1-MMP act inh -1, PABP FP inh 8, Rce1 inh inactive, UUG fidelity -9, CSC inhib -11, eIF4H inh 5 and MT1-MMP act inh RFP 6.
Screening CCOCc1c(C(=O)N2CCN(CCOc3ccc(Cl)cc3)CC2)oc2ccccc12 returned HIV Env fusion inconclusive, MT1-MMP act inh -6, UUG fidelity 7 and MT1-MMP act inh RFP -18.
Screening COCCN(C(=O)c1ccco1)c1nnc(-c2ccc(F)cc2)s1 returned HIV Env fusion 12, MT1-MMP act inh -1, PABP FP inh -9, Rce1 inh inactive, UUG fidelity 4, CSC inhib 2, eIF4H inh -6 and MT1-MMP act inh RFP -2.
For COc1ccccc1N1CCN(CCN2C(=O)C3CCCN3C2=O)CC1 (stereo unspecified) the results were HIV Env fusion -9, MT1-MMP act inh 1, PABP FP inh 3, Rce1 inh inactive, UUG fidelity -11, CSC inhib -20, eIF4H inh 1 and MT1-MMP act inh RFP 2.
`COc1ccccc1CCC(=O)N(CCC1=CCCCC1)c1c(N)n(Cc2ccccc2)c(=O)[nH]c1=O` gave HIV Env fusion 21, MT1-MMP act inh -9, Rce1 inh inactive, CSC inhib 2 and MT1-MMP act inh RFP -6.
Screening Cc1cc(NS(=O)(=O)c2ccc(NC(=O)c3c(F)c(F)c(F)c(F)c3F)cc2)nc(C)n1 returned HIV Env fusion -2, MT1-MMP act inh 2, PABP FP inh -5, Rce1 inh inactive, UUG fidelity -11, CSC inhib 0, eIF4H inh -5 and MT1-MMP act inh RFP 2.
For O=C(COC(=O)c1cccc(NS(=O)(=O)c2ccc(F)c(F)c2)c1)NC(=O)NC1CCCCC1 the results were HIV Env fusion -31, MT1-MMP act inh 1, PABP FP inh -5, Rce1 inh inactive, UUG fidelity -3, CSC inhib 2, eIF4H inh 2 and MT1-MMP act inh RFP -3.
Screening CCN(CC)c1ccc(/C=C2\NC(=O)NC2=O)cc1 returned HIV Env fusion -124, MT1-MMP act inh 0, PABP FP inh -9, Rce1 inh inactive, UUG fidelity 5, CSC inhib 46, eIF4H inh 11 and MT1-MMP act inh RFP 5.
Cc1ccc(S(=O)(=O)Nc2nc3ccccc3nc2NCC2CCCO2)cc1C (stereo unspecified) was read as HIV Env fusion 17, MT1-MMP act inh 4, PABP FP inh -1, Rce1 inh inactive, UUG fidelity -2, CSC inhib -4, eIF4H inh -4 and MT1-MMP act inh RFP 5.
CCOC(=O)C1(C)CCCN(C(=O)c2cc(F)cc(F)c2)C1 (stereo unspecified) was read as HIV Env fusion -11, MT1-MMP act inh 0, UUG fidelity -7 and MT1-MMP act inh RFP 5.
`CN(CC(=O)Nc1ccccc1C(F)(F)F)C(=O)CSc1nnnn1C` gave HIV Env fusion -13, MT1-MMP act inh 5, PABP FP inh -7, Rce1 inh inactive, UUG fidelity -17, CSC inhib -5, eIF4H inh -3 and MT1-MMP act inh RFP 2.
Screening COc1ccc(-c2cc(C(=O)Nc3cc(Cl)ccc3O)no2)cc1 returned HIV Env fusion -31, MT1-MMP act inh -1, PABP FP inh -46, Rce1 inh inactive, UUG fidelity -7, CSC inhib 4, eIF4H inh -18 and MT1-MMP act inh RFP -2.
`CC(C)n1cc2c(N)ncnc2n1` gave HIV Env fusion 8, MT1-MMP act inh -2, UUG fidelity -1 and MT1-MMP act inh RFP 0.
For COc1ccccc1CN1CC(C(=O)NCc2ccc(SC)cc2)CCC1=O (stereo unspecified) the results were HIV Env fusion 12, MT1-MMP act inh 0, PABP FP inh 12, Rce1 inh inactive, UUG fidelity -4, eIF4H inh -10 and MT1-MMP act inh RFP -2.
For CS(=O)(=O)N(CC(=O)N1CCOCC1)c1cc(C(F)(F)F)ccc1Cl the results were HIV Env fusion 7, MT1-MMP act inh -1, PABP FP inh -6, Rce1 inh inactive, UUG fidelity -11, CSC inhib -19, eIF4H inh -6 and MT1-MMP act inh RFP 1.
`CCn1c(=O)n(CC(=O)NC2CCCC(C)C2C)c(=O)c2ccccc21` (stereo unspecified) gave MT1-MMP act inh 5, PABP FP inh -11, Rce1 inh inactive, UUG fidelity -13, CSC inhib -14, eIF4H inh 1 and MT1-MMP act inh RFP -1.
N#Cc1ccccc1OCc1nnc(-c2ccccc2Br)o1 was read as HIV Env fusion -82, MT1-MMP act inh -4, PABP FP inh -2, Rce1 inh inactive, UUG fidelity -4, CSC inhib 17, eIF4H inh 14 and MT1-MMP act inh RFP -4.
`COc1ccc(-c2ccc3c(c2)O[C@H](CN(C)C(=O)Nc2ccccc2F)[C@@H](C)CN([C@H](C)CO)S3(=O)=O)cc1` gave HIV Env fusion -76, MT1-MMP act inh -2, UUG fidelity -5&-6 and MT1-MMP act inh RFP -3.
COc1ccc(S(=O)(=O)N2CCN(C)CC2)cc1NC(=O)c1ccccc1C was read as HIV Env fusion -13, MT1-MMP act inh 0, PABP FP inh 9, Rce1 inh inactive, UUG fidelity -16, CSC inhib -9, eIF4H inh 6 and MT1-MMP act inh RFP -1.
For CCC(=O)Nc1ccc2c(c1)nc(CCN1CCN(C)CC1)n2C the results were HIV Env fusion -44, MT1-MMP act inh 10, PABP FP inh -2, Rce1 inh inactive, UUG fidelity -11, CSC inhib -8, eIF4H inh -4 and MT1-MMP act inh RFP 4.
Cc1ccc(S(=O)(=O)N(CC(=O)Nc2ccc(Cl)cc2)C(=O)N2CCN(C)CC2)cc1 was read as MT1-MMP act inh 4, Rce1 inh inactive, UUG fidelity -20 and MT1-MMP act inh RFP 4.
COc1ccccc1CN1CCN(Cc2nc(-c3ccccc3)no2)CC1 was read as HIV Env fusion 7, MT1-MMP act inh 0, PABP FP inh -5, Rce1 inh inactive, CSC inhib -5, eIF4H inh 0 and MT1-MMP act inh RFP 1.
`COc1ccc(C(=O)NCCS(=O)(=O)N(C)Cc2ccccc2)cc1` gave HIV Env fusion 5, MT1-MMP act inh 1, Rce1 inh inactive, UUG fidelity 12, CSC inhib -1 and MT1-MMP act inh RFP -1.
For Cc1ccc(NC(=O)CCCCCN2C(=O)[C@@H]3Cc4ccccc4CN3C2=O)c(C)c1 the results were HIV Env fusion 9, MT1-MMP act inh 2, PABP FP inh -12, Rce1 inh inactive, CSC inhib -8, eIF4H inh 4 and MT1-MMP act inh RFP -9.
Screening O=S(=O)(c1cc(Cl)c(Cl)cc1Cl)N1CCN2CCCC2C1 (stereo unspecified) returned HIV Env fusion -23, MT1-MMP act inh -1, PABP FP inh -4, Rce1 inh inactive, UUG fidelity -6, CSC inhib 9, eIF4H inh 0 and MT1-MMP act inh RFP -7.
`O=C(N[C@@H](Cc1ccccc1)C(=O)OCc1ccccc1)c1nc[nH]c1C(=O)N1CCc2ccccc2C1` gave HIV Env fusion 16, MT1-MMP act inh 0, PABP FP inh 0, Rce1 inh inactive, UUG fidelity -10, CSC inhib 5, eIF4H inh 0 and MT1-MMP act inh RFP 1.
`CCOC(=O)c1cnc2c(-c3ccccc3)cnn2c1C` gave HIV Env fusion -122, MT1-MMP act inh 1, PABP FP inh 5, Rce1 inh inactive, CSC inhib 0, eIF4H inh -1 and MT1-MMP act inh RFP 0.
For CCc1ccc(N2C(=O)CC(N3CCN(Cc4ccc5c(c4)OCO5)CC3)C2=O)cc1 (stereo unspecified) the results were HIV Env fusion 9, MT1-MMP act inh 4, PABP FP inh 4, Rce1 inh inactive, CSC inhib -10, eIF4H inh 0 and MT1-MMP act inh RFP 4.
Screening CCCCN=C1NN=C(c2ccc(C)c(C)c2)CS1 returned HIV Env fusion -50, MT1-MMP act inh 0, PABP FP inh -5, Rce1 inh inactive, CSC inhib -6, eIF4H inh -12 and MT1-MMP act inh RFP -2.
`CC1(C)Cc2c(cnn2-c2ccccc2)C(=O)/C1=N\NC(=O)c1ccccc1O` gave MT1-MMP act inh -3, PABP FP inh -8, Rce1 inh inactive, UUG fidelity 18, CSC inhib 8, eIF4H inh 1 and MT1-MMP act inh RFP -7.
Screening O=C(CSc1nc(-c2ccccc2)cs1)N1CCN(C(=O)c2ccco2)CC1 returned HIV Env fusion -3, MT1-MMP act inh 1, PABP FP inh 2, Rce1 inh inactive, UUG fidelity -14, CSC inhib -7, eIF4H inh -11 and MT1-MMP act inh RFP 1.
